GSTO1 counter = GSTO1 inhibition, counter-screen for RBBP9 inhibitors. actives 1.1% (n = 300,000). recombinant GSTO1, activity-based probe fluorescence polarization. inhibition, % at 5.96 µM. P78417;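 active = inhibition above the campaign mean inhibition plus 3 SD, cut at about 35% in these data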;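 also: 0% = GSTO1-1 with DMSO and 100% = wells lacking GSTO1-1 enzyme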
Target sequence (P78417 whole entry, looked up): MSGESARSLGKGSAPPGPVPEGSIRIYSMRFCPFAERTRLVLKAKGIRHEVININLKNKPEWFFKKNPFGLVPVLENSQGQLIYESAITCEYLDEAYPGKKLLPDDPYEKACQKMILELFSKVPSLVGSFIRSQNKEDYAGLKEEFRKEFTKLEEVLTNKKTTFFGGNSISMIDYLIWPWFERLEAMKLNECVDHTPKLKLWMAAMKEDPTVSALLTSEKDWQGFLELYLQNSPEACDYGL
LYPLA2 inh = LYPLA2 (human) inhibition in PME1 counter-screen. actives 0.38% (n = 320,000). AID 2177. recombinant LYPLA2, FP-Rh probe fluorescence polarization. inhibition, % at 5.9 µM. O95372;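 active = inhibition above the screen-wide mean plus 3 SD, limit set per campaign, cut at about 26% in these data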;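 also: 0% = LYPLA2 with DMSO and 100% = wells lacking LYPLA2 enzyme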
PREPL inh = inhibitors of human prolyl oligopeptidase-like enzyme PREPL; Q4J6C6; recombinant PREPL, fluorescence polarization activity-based probe; inhibition, % at 5.96 µM; actives 0.68% (n = 320,000); in the data active = inhibition above about 43%;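 also: 0% = enzyme with DMSO and 100% = wells lacking enzyme; many of its hits are not listed in these tables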
PAFAH2 inh = inhibitors of human PAFAH2; recombinant PAFAH2, FP-rhodamine activity probe, fluorescence polarization; inhibition, % at 3.39 µM; actives 0.99% (n = 340,000); Q99487;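 active = inhibition above the mean over all tested compounds plus 3 SD, cut at about 30% in these data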;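 also: inhibitors block probe labeling of enzyme so polarization drops; 0% = enzyme with DMSO and 100% = wells lacking PAFAH2 protein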
PAD4 FP inh = blocks human protein arginine deiminase 4. recombinant PAD4, RCA probe fluorescence polarization. actives 0.41% (n = 330,000). inhibition, % at 6.36 µM. Q9UM07;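 active = percent inhibition above a cutoff equal to the mean of all tested compounds plus 3 SD, cut at about 15% in these data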;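 also: 0% = PAD4 with RCA probe and DMSO and 100% = probe without PAD4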
LYPLA1 counter = LYPLA1 (human) inhibition in PME1 counter-screen. AID 2174. inhibition, % at 5.9 µM. recombinant LYPLA1, FP-Rh probe fluorescence polarization. actives 0.16% (n = 320,000). O75608;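 active = inhibition above the mean of all tested compounds plus 3 SD, set per campaign, cut at about 14% in these data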;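 also: inhibitors block serine hydrolase probe labeling of LYPLA1 so polarization falls; 0% = enzyme with DMSO and 100% = wells lacking LYPLA1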
Target sequence (O75608 whole entry, looked up): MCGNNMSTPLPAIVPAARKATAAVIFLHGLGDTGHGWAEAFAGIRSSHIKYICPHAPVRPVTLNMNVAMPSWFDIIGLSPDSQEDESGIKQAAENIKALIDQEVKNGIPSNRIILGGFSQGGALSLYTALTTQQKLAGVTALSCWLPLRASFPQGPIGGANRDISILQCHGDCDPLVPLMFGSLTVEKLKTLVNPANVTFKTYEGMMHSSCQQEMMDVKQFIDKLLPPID
PAFAH1B3 inh = PAFAH1B3 (human) inhibition; Q15102; recombinant PAFAH1B3, FP-rhodamine probe, fluorescence polarization; AID 492972; inhibition, % at 3.39 µM; actives 0.28% (n = 340,000);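 active = inhibition above the screen-wide average of all tested compounds plus 3 SD, cut at about 25% in these data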;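 also: 0% = enzyme with DMSO only and 100% = wells lacking PAFAH1B3 protein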
Target sequence (Q15102 whole entry, looked up): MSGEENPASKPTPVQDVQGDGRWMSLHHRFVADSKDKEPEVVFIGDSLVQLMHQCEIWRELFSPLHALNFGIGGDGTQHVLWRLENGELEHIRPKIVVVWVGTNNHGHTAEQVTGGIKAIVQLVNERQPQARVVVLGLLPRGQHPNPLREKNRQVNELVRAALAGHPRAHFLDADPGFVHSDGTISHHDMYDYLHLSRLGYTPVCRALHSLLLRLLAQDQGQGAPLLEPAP
PAFAH1B2 inh = PAFAH1B2 (human) inhibition; actives 1.2% (n = 340,000); recombinant PAFAH1B2, FP-rhodamine activity probe, fluorescence polarization; P68402; AID 492953; inhibition, % at 3.39 µM;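 active = inhibition above the mean of all tested compounds plus 3 SD, cut at about 24% in these data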;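 also: 0% = enzyme with DMSO and 100% = wells lacking PAFAH1B2; many of its hits are not listed in these tables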
Target sequence (P68402 whole entry, looked up): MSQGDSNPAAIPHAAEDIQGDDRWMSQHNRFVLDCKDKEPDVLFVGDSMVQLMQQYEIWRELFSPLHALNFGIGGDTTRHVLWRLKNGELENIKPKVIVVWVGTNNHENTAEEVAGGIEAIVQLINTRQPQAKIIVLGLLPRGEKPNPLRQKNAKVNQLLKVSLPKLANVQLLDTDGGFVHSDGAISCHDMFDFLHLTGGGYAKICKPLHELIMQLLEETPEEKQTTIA
Active calls of the source: *; . = no result given. Not all compounds are listed. The share of hits here may be higher or lower than overall.

Each structure is followed by: GSTO1 counter | LYPLA2 inh | PREPL inh | PAFAH2 inh | PAD4 FP inh | LYPLA1 counter | PAFAH1B3 inh | PAFAH1B2 inh
1	O=C(/C=C/c1ccc2c(c1)OCO2)N1CCOCC1
    8 | 3 | 17 | 0 | -1 | 2 | 5 | -1
2	Cc1cccc(NS(=O)(=O)c2ccc(C(=O)N3CCN(c4ccccc4O)CC3)cc2)c1C
    -6 | -2 | -13 | -1 | 4 | 0 | -4 | -4
3	CCCCCCSc1cc(-c2nc3cnccn3c2NCCCC)ccc1OC
    . | . | 18 | 16 | 2 | . | -3 | 16
4	Cc1cccc(/C=N/NC(=O)c2ccc(NC(=O)c3ccc(Cl)cc3)cc2)n1
    1 | -22 | -3 | -19 | -4 | -16 | -3 | -1
5	O=C(NCC1(N2CCCCC2)CCCCC1)c1cccc(S(=O)(=O)Nc2ccc(F)cc2)c1
    . | 1 | -13 | 1 | -1 | 1 | 7 | 7
6	N#Cc1cccc(C#N)c1Oc1ccc(S(=O)(=O)Nc2ccccc2)cc1
    -10 | 1 | -5 | . | -5 | 1 | . | .
7	COc1ccc(NC(=O)CSc2nc3ccccc3c(=O)n2CCNC(C)=O)c(OC)c1
    -1 | 4 | 10 | 1 | -2 | 1 | 2 | 4
8	CC(=O)c1ccc(N2CCN(C(=O)COc3ccc4c(c3)CCC4)CC2)cc1
    4 | 10 | 16 | -4 | 1 | -2 | 6 | 1
9	O=C(O)c1cccc(N2C(=O)C3C4C=CC(C4=C(c4ccccc4)c4ccccc4)C3C2=O)c1 (stereo not drawn)
    -5 | 5 | 4 | . | -7 | -1 | . | .
10	CCCCc1ccc(NS(=O)(=O)c2cccc(C(=O)N3CCCN(C)CC3)c2)cc1
    . | -2 | 8 | 14 | -5 | 4 | -2 | 1
11	O=C(COC(=O)CC1CC2CCC1C2)Nc1ccc(F)cc1 (stereo not drawn)
    14 | -2 | -1 | 75* | -4 | -1 | 0 | 6
12	CCc1ccccc1NC(=O)CN(c1ccc(OC)cc1OC)S(=O)(=O)c1ccccc1[N+](=O)[O-]
    -2 | 0 | -2 | 3 | 0 | -1 | 3 | 0
13	CC1CCCCC1NS(=O)(=O)c1ccc(S(=O)(=O)NCc2ccncc2)cc1 (stereo not drawn)
    11 | -2 | 9 | . | -7 | -5 | . | .
14	COc1ccc(NS(=O)(=O)c2cccc(C(=O)N(C)CC(=O)Nc3ccc(C)cc3)c2)cc1
    3 | -4 | 8 | 2 | 0 | -1 | 2 | 2
15	CCOC(=O)NCc1ccc(S(=O)(=O)Nc2ccc(C)cc2)cc1
    -11 | -9 | -8 | 10 | 0 | -2 | 4 | 1

Each structure is followed by: GSTO1 counter | LYPLA2 inh | PREPL inh | PAFAH2 inh | PAD4 FP inh | LYPLA1 counter | PAFAH1B3 inh | PAFAH1B2 inh
16	C/C(Cn1nnc2ccccc21)=N\OC(=O)c1ccccc1C
    1 | 2 | -7 | 82* | 5 | -3 | 3 | 0
17	CCOc1ccc(NC(=O)COC(=O)Cc2ccsc2)cc1
    . | . | 15 | 12 | 0 | . | 9 | 9
18	CCc1cc(=O)oc2c3c(cc(OCC(=O)NCCN4CCOCC4)c12)OC(C)(C)CC3
    -4 | 0 | 1 | 43* | 0 | -3 | 18 | 6
19	CCc1ccc(NS(=O)(=O)c2cc3c4c(c2)CCN4C(=O)CC3)cc1
    8 | -1 | 3 | 4 | -1 | 4 | 1 | 9
20	CCOc1ccc(CCNC(=O)COC(=O)CSc2ccccc2C)cc1OCC
    1 | 8 | 14 | 7 | 6 | 5 | 4 | 3
21	Cc1cc(C)c(NC(=O)COC(=O)Cc2ccsc2)c(C)c1
    0 | -5 | -4 | 9 | 5 | 0 | 2 | -1
22	S=c1[nH]ncn1/N=C/c1ccc(Br)cc1
    4 | -2 | 4 | -3 | -6 | 2 | 4 | -3
23	Cc1ccc(C)c(N2CCN(C(=O)c3ccc4c(=O)n5c(nc4c3)CCCCC5)CC2)c1
    -2 | 0 | 23 | 0 | -6 | 0 | 3 | -1
24	O=C(c1cccc(NS(=O)(=O)c2ccc(F)c(F)c2)c1)N1CCN(Cc2ccccc2)CC1
    2 | 4 | 5 | -8 | -3 | 4 | 9 | 13
25	CCOc1cc(/C=C(/NC(C)=O)C(=O)O)cc(Cl)c1OCc1cccc(Br)c1
    12 | -6 | -15 | -4 | -4 | -4 | 8 | 3
26	O=C(O)c1ccccc1Nc1cc(Cl)c2nonc2c1[N+](=O)[O-]
    30 | -2 | 2 | 7 | -1 | -3 | 9 | 3
27	O=C(c1ccc2nc(N3CCOCC3)sc2c1)N1CCC(Cc2ccccc2)CC1
    2 | 15 | -2 | 5 | 1 | 5 | 2 | 7
28	O=C(c1ccc(S(=O)(=O)Nc2ccccc2)cc1)N1CCCCCCC1
    4 | 8 | 1 | -8 | 0 | 6 | -10 | 1
29	COc1ccc(OCCn2c(C)c(/C=N/n3cnnc3)c3ccccc32)cc1
    -7 | 4 | 21 | -2 | -5 | -4 | 6 | 2
30	O=S(=O)(Nc1cccc2c1ccc1cccn12)c1cccs1
    3 | 3 | -12 | 8 | -4 | -4 | 1 | 1

Each structure is followed by: GSTO1 counter | LYPLA2 inh | PREPL inh | PAFAH2 inh | PAD4 FP inh | LYPLA1 counter | PAFAH1B3 inh | PAFAH1B2 inh
31	CCOC(=O)N1CCN(C(=O)/C=C/c2ccc(OC)cc2)CC1
    -1 | -4 | -5 | -6 | -7 | 1 | 9 | 10
32	O=c1[nH]c(SCc2ccccc2F)nc2ccccc12
    -8 | 5 | -2 | 6 | -1 | 0 | 7 | 3
33	CC1CCCC(NC(=O)COC(=O)c2sc3ccccc3c2Cl)C1C (stereo not drawn)
    10 | 5 | 13 | 7 | -2 | -1 | 5 | -1
34	CC(C)CNS(=O)(=O)c1ccc(CCC(=O)N2CCN(Cc3ccc4c(c3)OCO4)CC2)cc1
    3 | 8 | 9 | 1 | -2 | 1 | 8 | 2
35	C=CCn1c(SCC(=O)NC(N)=O)nnc1-c1cc2c(s1)CCC(CC)C2 (stereo not drawn)
    11 | 6 | -8 | -7 | 0 | 2 | -7 | 2
36	COc1ccc(S(=O)(=O)Nc2ccc(C)cc2)cc1N(C)S(=O)(=O)c1ccc(Cl)cc1
    24 | -33 | 6 | 1 | -4 | -12 | 1 | -2
37	Cc1cccc(NS(=O)(=O)c2cccc(C(=O)N3CCCCCCC3)c2)c1
    . | 6 | 10 | 16 | 4 | -5 | 4 | 22
38	Cc1nn(-c2ccccc2)c(C)c1NC(=O)COc1ccc(C#N)cc1
    0 | 1 | 4 | 2 | -2 | -1 | 8 | 0
39	COc1ccc(-n2c(SCC(=O)N/N=C(\C)c3cccnc3)nc3ccccc3c2=O)cc1
    4 | -4 | 12 | . | -4 | 0 | . | .
40	CCNC(=O)CSc1nc2ccccc2c(=O)n1-c1cc(OC)ccc1OC
    -1 | 3 | 14 | -4 | -5 | 1 | 6 | 3
41	CC(C)(C)c1ccc(C2C3=C(CCCC3=O)NC3=C2C(=O)c2ccccc23)cc1 (stereo not drawn)
    4 | -6 | 28 | 6 | -4 | -6 | 13 | 6
42	N#Cc1sc2nc(C3CC3)cc(-c3ccccc3)c2c1N
    -3 | -1 | 11 | 1 | 7 | -1 | 7 | 4
43	CCOc1ccc(NS(=O)(=O)c2ccc(C(=O)N(CC)CC(=O)NCc3cccs3)cc2)cc1
    6 | 4 | 7 | 1 | 0 | 0 | -1 | -1
44	Cc1ccsc1/C=N/n1c(-c2cc(-c3ccccc3)n[nH]2)n[nH]c1=S
    15 | 5 | 15 | 29 | 4 | 2 | 16 | 2
45	Cc1cc(-c2nc3cccnc3s2)ccc1NS(=O)(=O)c1ccc2c(c1)OCCO2
    -26 | -11 | -12 | 1 | -9 | -18 | -4 | 5

Two records drawn at random from those above, as already listed:
Each structure is followed by: GSTO1 counter | LYPLA2 inh | PREPL inh | PAFAH2 inh | PAD4 FP inh | LYPLA1 counter | PAFAH1B3 inh | PAFAH1B2 inh
44	Cc1ccsc1/C=N/n1c(-c2cc(-c3ccccc3)n[nH]2)n[nH]c1=S
    15 | 5 | 15 | 29 | 4 | 2 | 16 | 2
41	CC(C)(C)c1ccc(C2C3=C(CCCC3=O)NC3=C2C(=O)c2ccccc23)cc1 (stereo not drawn)
    4 | -6 | 28 | 6 | -4 | -6 | 13 | 6

(continued)
Each structure is followed by: GSTO1 counter | LYPLA2 inh | PREPL inh | PAFAH2 inh | PAD4 FP inh | LYPLA1 counter | PAFAH1B3 inh | PAFAH1B2 inh
46	Cc1cccc(C(C)C)c1NC(=O)COC(=O)Cc1ccsc1
    -2 | 4 | -3 | 27 | 0 | -1 | 10 | 5
47	COc1cc2c(cc1OC)-c1cc(OCc3ccccc3Cl)nc(=O)n1CC2
    -6 | -4 | -14 | 86* | 1 | -20 | 9 | -2
48	COc1ccc(-c2c(C(F)(F)F)[nH]n3c(=O)cc(-c4ccccc4)nc23)cc1
    23 | 2 | 8 | 26 | -3 | 1 | 19 | 7
49	COc1ccc(NC(=O)CCS(=O)(=O)c2ccccc2Cl)cc1S(=O)(=O)Nc1ccc(Cl)cc1
    -19 | -5 | -7 | 3 | 0 | -7 | -1 | 4
50	COc1ccc(N=Cc2nc(-c3ccco3)oc2O)cc1
    5 | 6 | 18 | 82* | -4 | 2 | 4 | 3
51	O=C(NCc1ccc2c(c1)OCO2)C1CC(=O)N(CCc2ccccc2)C1 (stereo not drawn)
    6 | 4 | -2 | 4 | 4 | 1 | 6 | 2
52	O=C(Nc1ccc(S(=O)(=O)Nc2ccccc2)cc1)c1ccc(CN2CCOCC2)cc1
    -10 | -4 | -6 | 0 | 1 | -6 | 2 | 4
53	Cc1ccccc1-n1c(SCC(=O)NCc2cccs2)nc2ccccc2c1=O
    4 | -2 | 1 | -9 | 5 | 8 | 6 | -1
54	CC(C)=CC(=O)OCC(=O)Nc1nc(C)c(Cl)cc1Cl
    -1 | 7 | -2 | 21 | -2 | 0 | -6 | 0
55	COc1ccc2c(-c3ccc(SC)cc3)c(-c3ccc(S(C)(=O)=O)cc3)sc2c1
    . | . | 2 | 0 | -2 | . | -2 | -2
56	O=C(O)C1C2C=CC(O2)C1C(=O)Nc1ccc(S(=O)(=O)Nc2ccccc2)cc1 (stereo not drawn)
    -6 | 2 | 2 | 6 | -4 | -1 | 0 | 4

5 structures out of the list, sorted by length of the SMILES, largest number first.
Each structure is followed by: GSTO1 counter | LYPLA2 inh | PREPL inh | PAFAH2 inh | PAD4 FP inh | LYPLA1 counter | PAFAH1B3 inh | PAFAH1B2 inh
52	O=C(Nc1ccc(S(=O)(=O)Nc2ccccc2)cc1)c1ccc(CN2CCOCC2)cc1
    -10 | -4 | -6 | 0 | 1 | -6 | 2 | 4
44	Cc1ccsc1/C=N/n1c(-c2cc(-c3ccccc3)n[nH]2)n[nH]c1=S
    15 | 5 | 15 | 29 | 4 | 2 | 16 | 2
27	O=C(c1ccc2nc(N3CCOCC3)sc2c1)N1CCC(Cc2ccccc2)CC1
    2 | 15 | -2 | 5 | 1 | 5 | 2 | 7
37	Cc1cccc(NS(=O)(=O)c2cccc(C(=O)N3CCCCCCC3)c2)c1
    . | 6 | 10 | 16 | 4 | -5 | 4 | 22
15	CCOC(=O)NCc1ccc(S(=O)(=O)Nc2ccc(C)cc2)cc1
    -11 | -9 | -8 | 10 | 0 | -2 | 4 | 1
